Vaccinia Venus – vaccinia inhibition (Venus reporter); 0.46% of 330,000 active; Potency, µM (top dose mostly 36.5 µM), inactives show at the top dose activity change, negative = inhibition, most hits filed as inhibitors; Vaccinia virus Venus reporter expression, fluorescence; AID 720580; active means well fitted inhibition curve with a large enough effect; inconclusive means small, poorly fitted or top-dose-only effect; inactive means no such curve, though single readings can be large or run the other way; tested in A549 cells; further: nearly all actives have a fitted effect of over 30% in size; inactives centre near -10
VACV mCherry inh – inhibitors of vaccinia virus infection (mCherry reporter signal); Potency, µM (top dose mostly 36.5 µM), for the others: at the highest dose activity change, negative = inhibition, hits mostly inhibitors; 0.63% of 310,000 active; Vaccinia virus mCherry reporter infection, fluorescence; about a quarter of the inactives have no number; active = well fitted inhibition curve with a large enough effect; inconclusive = small, poorly fitted or top-dose-only effect; inactive = no such curve, though single readings can be large or run the other way; tested in A549 cells; further: nearly all actives have a fitted effect of over 35% in size; inactives centre near -10
Numbers without * were called inactive; i = inactive; ? = inconclusive; / = no result given; & = joins results of further samples; [ ] = dose if it differs, or a comment. On the % scale 0 is the no-effect control and ±100 the full control effect; potency means the concentration at half of the fitted maximal effect.

Molecule | Vaccinia Venus | VACV mCherry inh
O=C(CN1C(=O)NC2NC(=O)NC21)N/N=C/c1ccccc1O (centres undefined) | -12% | ?
Cc1ccc(N(C(=O)c2csnn2)C(C(=O)NC(C)(C)C)c2cccnc2)cc1C (centres undefined) | -12% | i
Cc1ccc(CNC(=O)CSc2ccc(-c3cccs3)nn2)cc1 | 0% | 11%
Cc1cccc(N2CCN(C(=O)Cn3c(C)c4cnn(-c5ccccc5)c(=O)c4c3C)CC2)c1C | -26% | ?
CCOC(CNC(=O)CCc1c(C)nc2ncnn2c1C)OCC | -10% | -13%
O=C(NC1CCCC1)C1c2ccccc2OCC(=O)N1Cc1cccnc1 (centres undefined) | -4% | 15%
COc1ccc(/C(N)=N/OC(=O)c2ccc(OC)c([N+](=O)[O-])c2)cc1OC | -5% | 3%
COc1cc(OC)c2c(-c3cccc(-c4ccc(O)cc4)c3)cc(=O)oc2c1 | ? | ?
COc1ccccc1-n1c(SCC(=O)NC2CCS(=O)(=O)C2)nc2cc([N+](=O)[O-])ccc21 (centres undefined) | -18% | -18%
Cc1ccc(NC(=O)CC(C)S(=O)(=O)c2ccc3c(c2)NC(=O)CO3)cc1C (centres undefined) | -3% | -6%
COc1ccc(-n2cc(-c3ccccc3)c3c(NCCCN4CCOCC4)ncnc32)cc1 | -13% | ?
O=C(Nc1ncc(Cc2ccccc2)s1)C1CCCO1 (centres undefined) | 2% | -18%
Cc1nc(C)c(CC(=O)N2CCOc3ccc(CN4CCN(c5ccccn5)CC4)cc3C2)s1 | -27% | ?
CC(C)c1cc(-c2cc(-c3ccc(Cl)cc3)on2)nc(NCC2CC2)n1 | -9% | -9%
COc1ccc2c(c1)c(C(C)=O)c(C)n2C | -13% | -4%
CCCc1nc2ccccc2n1C(C(=O)NC(C)(C)C)C1CC1 (centres undefined) | 0% | -2%
O=C(COc1cccc2cccnc12)N1CCc2ccccc2C1 | 3% | -11%
Clc1ccccc1-c1cccc2nccn12 | -3% | -12%
O=C(O)c1ccc(Cl)c(NCc2cccs2)c1 | -16% | -13%
COc1cccc(=O)c2c(C)n(-c3ccc(C(=O)O)cc3)c(C)c12 | 9% | 12%
Cc1ccc(C)c(CSc2nc3ncccc3[nH]2)c1 | -17% | -19%
C#CCN1C=CC(=O)[C@@H](OC(=O)Nc2ccc(OC)cc2)[C@H]1c1ccccc1Br | -4% | -23%
Cc1ccc(-c2csc(NNC(=O)c3ccccc3)n2)cc1 | -28% | ?
Cc1ccc(C(=O)/C=C/Nc2ccccn2)cc1 | -13% | -6%
c1ccc(COc2ccc(OCCCn3cncn3)cc2)cc1 | -16% | -18%
c1ccc2c(c1)nnn2-c1ncnc2sc3c(c12)CCCC3 | -15% | -4%
CC(C)(C)c1ccc(OCCCNCc2ccccc2)cc1 | ? | -14%
CC(C)(C)NC(=O)NC(=O)CSc1ncn[nH]1 | -18% | -16%
COc1ccc(Cn2c(=O)[nH]c3cc(C(=O)N4CCN(c5ccccc5)CC4)ccc3c2=O)cc1 | -4%&-12% | -8%&-3%
C=CCOC(=O)/C(=C\c1ccccc1)NC(=O)c1ccc(C)cc1 | -12% | -10%
O=P(N[C@@H](c1ccccc1)[C@@H]1C[C@H]1CO)(c1ccccc1)c1ccccc1 | -12% | i
CC(C)(C)NC(=O)COC(=O)c1cc(S(=O)(=O)N2CCCCC2)ccc1N1CCOCC1 | -16% | i
Cc1cc(C)nc(SCC(=O)n2c3c(c4ccccc42)CCCC3)n1 | -4% | i
CC1(C)Oc2cc3oc(=O)ccc3cc2C[C@@H]1O | 3% | i
Cn1cccc1C(=O)NCC(c1ccco1)N1CCCCC1 (centres undefined) | -12% | -22%
O=C(CN1C(=O)NC(c2ccccc2)(c2ccccc2)C1=O)N1CCCCC1 | 2% | i
Cc1ccc2cc(C#N)c(N3CCCN(C(=S)NCCCN(C)C)CC3)nc2c1 | ? | -9%
Cc1ccc(-n2ncc(C(=O)N3CCN(c4ccccc4F)CC3)c2C2CCN(C(=O)OC(C)(C)C)CC2)cc1C | -15% | -11%
COc1ccc(S(=O)(=O)N(C)C[C@H]2Oc3c(NC(=O)NC4CCCCC4)cccc3C(=O)N([C@H](C)CO)C[C@@H]2C)cc1 | ? | ?
COC(=O)CSc1nc2nc(C)cc(C)n2n1 | -6% | 0%

Arranged by heavy-atom count (low to high): some entries from above.
Molecule | Vaccinia Venus | VACV mCherry inh
COC(=O)CSc1nc2nc(C)cc(C)n2n1 | -6% | 0%
Cn1cccc1C(=O)NCC(c1ccco1)N1CCCCC1 (centres undefined) | -12% | -22%
O=P(N[C@@H](c1ccccc1)[C@@H]1C[C@H]1CO)(c1ccccc1)c1ccccc1 | -12% | i

Further structures follow.
Molecule | Vaccinia Venus | VACV mCherry inh
O=C(Cn1nc(-c2cccc(Cl)c2)ccc1=O)Nc1ccccc1Br | 0% | 1%
CC(=O)NC12CC3CC(C1)CC(C(=O)N1CCN(S(=O)(=O)c4ccc(C(C)C)cc4)CC1)(C3)C2 | -15% | -16%
COc1cc2c(C#N)c(N3CCCC3)nc(N)c2c(N)n1 | ? | ?
Cc1cc(C)n2nc(SCc3cc(=O)oc4ccc5ccccc5c34)nc2n1 | -6% | -12%
CCc1nn(C(CC)C(=O)NCCc2ccc(OC)cc2OC)c(=O)c2cc3occc3n12 (centres undefined) | -19% | -12%
Cc1onc(-c2c(F)cccc2Cl)c1C(=O)N1C=CC(C(F)(F)F)=NCC1 | -14% | /
CCONC(=NC)c1nonc1N | -11% | -4%
C/C(CCC1CC(C)(C)OC1=O)=N\NC(N)=S (centres undefined) | ? | ?
CCOC(=O)C1CCCN(CCC(=O)Nc2ccc(Br)cc2)C1 (centres undefined) | -7% | i
Cc1ccc(-c2c(C(=O)NCCc3ccccc3)oc(=O)c3ccccc23)cc1 | -6%[7.34 µM] | -11%[7.34 µM]
Cc1ccccc1N=C1NC(=O)CC(c2ccccc2)S1 (centres undefined) | -9% | -22%
CCOc1cc(C2C(C#N)=C(N)Oc3c2c(=O)oc2ccccc32)ccc1OC(=O)c1cccs1 (centres undefined) | -7% | -2%
Cc1cccc(-c2csc(NC(=O)c3cnccn3)c2C(=O)OC(C)C)c1 | 3% | 5%
COC(=O)[C@H](Cc1c[nH]c2ccccc12)NCc1cccc(B(O)O)c1 | -2% | -15%
COc1ccc(CC(=O)Nc2ccc3c(c2)CCC3)cc1OC | ? | /
CC(C)NCCOCCOc1ccccc1F | -12% | -7%
N#Cc1c(N)c(C#N)c(-c2ccc3c(c2)OCO3)c2c1CCCC2 | 3% | -4%
CC1C(C#N)=C(SCC(N)=O)NC2=C1C(=O)CC(C)(C)C2 (centres undefined) | -14% | -17%
CNc1ccc(-c2nc(-c3ccco3)no2)cc1[N+](=O)[O-] | -5% | -6%
CC1CCCN(C(=O)CCNC(=O)Cn2cnc3ccccc3c2=O)C1 (centres undefined) | 2% | -10%

2 compounds drawn at random from those above, as already listed:
Molecule | Vaccinia Venus | VACV mCherry inh
CCCc1nc2ccccc2n1C(C(=O)NC(C)(C)C)C1CC1 (centres undefined) | 0% | -2%
COc1ccccc1-n1c(SCC(=O)NC2CCS(=O)(=O)C2)nc2cc([N+](=O)[O-])ccc21 (centres undefined) | -18% | -18%

Later entries.
Molecule | Vaccinia Venus | VACV mCherry inh
COc1ccc(N2CCN(CCCNC(=O)c3nnc(Cc4ccccc4Cl)o3)CC2)cc1 | -11% | -10%
Cc1cc(NC(=O)CSCc2nc(-c3cccc(Cl)c3)oc2C)no1 | -23% | i
C=CCn1c(=NC(=O)c2cccc(N3C(=O)CCC3=O)c2)sc2cccc(OC)c21 | -14% | -2%
O=C(Nc1cccc2ccccc12)N1CCc2ccccc2C1 | -9% | -16%
CCn1c(SC(C)C(=O)NCC2CCCO2)nc2scc(-c3ccccc3)c2c1=O (centres undefined) | -19% | -11%
Cc1ccc(C(C(=O)NCc2ccccc2)N(C(=O)c2csnn2)C2CC2)cc1 (centres undefined) | 1% | ?
Fc1ccc(-c2nc3c4c(-c5ccccc5)c(-c5ccccc5)oc4ncn3n2)cc1 | -2% | -6%
CCN(CC)S(=O)(=O)c1ccc(C)c(NC(=S)N2CCN(C/C=C/c3ccccc3)CC2)c1 | ? | ?
CCC(C)NC(=O)Cn1c(=O)n(CCCCC(=O)NCc2ccco2)c(=O)c2ccccc21 (centres undefined) | -29% | /
CCOc1ccc(C2(C)NC(=O)N(CCN(C)C)C2=O)cc1 (centres undefined) | -9% | -3%
COc1ccc(Cl)cc1NC(=O)c1cc(-c2ccco2)on1 | -14% | -9%
C[C@]12CCC3C(CC[C@H]4[C@H](O)[C@H](O)CC[C@]34C)C1CCC2=O (some centres undefined) | -13% | i
COc1ccc(CCN2CC(C(=O)NC3CCCCC3)CC2=O)cc1OC (centres undefined) | -3% | -28%
COc1ccc(C(=O)N2CCN=C2c2ccccc2)cc1OC | -9% | i
CC1(C(=O)NS(=O)(=O)c2cccs2)CCN1C(=O)C1(c2ccccc2)CCCC1 (centres undefined) | -4% | -16%
Cc1ccc(NC(=O)C2C3C=CC4(O3)C2C(=O)N(CCN2CCOCC2)C4C(=O)NC2CCCCC2)cc1C (centres undefined) | -2% | -4%
CN(C)C(=O)c1cc2c(c(-c3cccc(C4=CCCCC4)c3)n1)[C@@H](CCO)N(S(=O)C(C)(C)C)C2 (some centres undefined) | 4% | 7%
Cc1ccc(NS(=O)(=O)c2cccc(C(=O)N3CCCCCC3)c2)cc1 | -18% | i
Cc1ccccc1C(=O)NC(C(=O)Nc1nc2c(s1)CCCC2)C(C)C (centres undefined) | -11% | -4%
O=C(Nc1cccc(Cl)c1)Nc1nnc([C@H]2C[C@H](O)[C@@H](CO)O2)s1 | -4% | 15%

One compound at a time, from the list above. Order of values: Vaccinia Venus, VACV mCherry inh
`Cc1ccc(NS(=O)(=O)c2cccc(C(=O)N3CCCCCC3)c2)cc1` is listed with -18%, i
`CC(C)NCCOCCOc1ccccc1F` is listed with -12%, -7%
`C[C@]12CCC3C(CC[C@H]4[C@H](O)[C@H](O)CC[C@]34C)C1CCC2=O` (some centres undefined) is listed with -13%, i

Additional structures follow.
Molecule | Vaccinia Venus | VACV mCherry inh
O=C(N1CCN(c2ccccn2)CC1)C(Cl)(Cl)Cl | -14% | -15%
Cc1ccccc1OC(=O)c1nc(SCc2ccccc2F)ncc1Cl | 1% | -3%
Nc1c(Cl)ncnc1N/N=C/c1ccncc1 | -14% | -19%
Cc1ccccc1-c1cc2nc(NCc3ccccc3)n(C)c(=O)c2s1 | -23% | i
CCCC(=O)Nc1ccc(NC(=O)c2cccc(OC)c2)nc1 | ? | -11%
CN1C(=O)c2ccccc2C(C(=O)NCc2ccco2)C1c1c[nH]c2ccccc12 (centres undefined) | ? | /
COC(=O)c1ccc(N2CCCCC2)c(N)c1 | -4% | -28%
NS(=O)(=O)c1ccc(CCNC(=O)C2CCN(C(=O)Nc3ccccc3)CC2)cc1 | -7% | i
Cc1ccc2oc(=O)c3cnn(CC(=O)N(CCCN4CCOCC4)Cc4ccco4)c3c2c1 | -4% | 26%
COc1ccc(Cl)cc1Nc1ncnc2c1c(-c1ccccc1)cn2-c1ccccc1 | 1% | -6%
Cc1ccc(-n2ncc3c(NCCc4ccccc4)ncnc32)cc1Cl | 3% | 0%
Cc1cc(C(=O)OCC(=O)Nc2ccccc2Br)c(C)o1 | -13% | i
CCC1CCCCN1S(=O)(=O)c1ccc(C(=O)N(CCCN(C)C)c2nc3cc4c(cc3s2)OCO4)cc1 (centres undefined) | ? | ?
Cc1nn(C(C)C(=O)NCCCN2CCCCCC2)c(=O)c2c1sc1ccccc12 (centres undefined) | 3% | -7%
Cc1ccc(OCCSc2nc(N)cc(N)n2)cc1 | -6% | -21%
COCCNC(=O)c1onc(CSc2ccncc2)c1C(=O)NCCOC | -15% | i
c1ccc(-c2cn(C[C@H]3CC[C@H](Cn4cc(-c5ccccn5)nn4)O3)nn2)nc1 | 0% | -7%
CCCn1nc(C(=O)NCCc2ccc(S(N)(=O)=O)cc2)c2ccccc2c1=O | 1% | -14%
CN(C)C(CNC(=O)c1cccc(S(=O)(=O)NCc2ccccc2)c1)c1ccco1 (centres undefined) | -4% | -14%
COc1ccc(NC(=O)CN2CCN(c3ccc(Cl)cc3)CC2)c(OC)c1 | ? | /
CC1CCCCC1NC(=O)COC(=O)COc1ccccc1F (centres undefined) | -13% | -20%
CCOC(=O)CNC(=O)N1C[C@H]2CON(C)[C@H]2C[C@H]1c1ccccc1Br | -13% | i
COc1ccc(-c2[nH]c(-c3cccc(OC)c3)nc2SCC(=O)Nc2ccc3c(c2)OCO3)cc1 | -9% | -13%
NNC(=O)CN1C(=O)CN=C(c2ccccc2)c2cc(Br)ccc21 | -11% | i
CNC(=O)NC(=O)COc1c(F)c(F)cc(F)c1F | -14% | 0%
Clc1cc2nc(-c3cccnc3Cl)[nH]c2cc1Cl | -24% | -13%
